NPYLR7 ag – activates Aedes aegypti NPYLR7 receptor; HEK293T NPYLR7/Galpha15, GCaMP6s calcium fluorescence; actives 0.15% (n = 270,000); AID 1259423; activation, % at 10 µM; in the data active = activation above about 40%;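 note: 0% = vehicle and 100% = reference agonist at the receptor; some compounds past the cut are filed as inactive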
NPYLR7 ag max-min – second read-out of NPYLR7 ag, no call of its own (marks repeat the call); activation, %; measured here: Max-Min RFU normalised activation; some inactives read as strong as hits;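 span of the calcium signal over five minutes; 0% = vehicle and 100% = native peptide agonist; compound fluorescence can raise it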
* hit, by the source's call; & = joins results of further samples. Not all compounds are listed (hit frequency here may not be typical).

Values run as follows: NPYLR7 ag, NPYLR7 ag max-min
1: Cc1nc(/C=C/c2nc(-c3ccc(S(C)(=O)=O)cc3)no2)cs1
 : -3, 35
2: Cc1cccc(-n2nc(C(=O)N3CCN(C)CC3)c(=O)n(Cc3ccccc3C)c2=O)c1
 : 14, 12
3: Clc1ccc(-n2nnnc2SCc2cc(Cl)c3c(c2)OCCO3)cc1
 : 6, 2
4: CN=c1scc(-c2ccc(OC(F)F)cc2)n1N=Cc1ccc2c(c1)OCCO2
 : 8, 6
5: COc1ccc(NC(=O)CSc2nnc(CNC(=O)c3ccco3)n2-c2cccc(C(F)(F)F)c2)cc1
 : 9, 6
6: Cc1cc(C)n(-c2ccc(C(=O)N[C@@H](Cc3c[nH]c4ccccc34)C(N)=O)cc2)n1
 : 3, -3
7: COc1ccccc1-n1ncc2c(C(C)C)nnc(SCC(=O)NC(C)C)c21
 : -12, -18
8: CCCCN(C(C)=O)c1c(CC)nc2ccc(C(=O)N3CCNC(=O)C3)cn12
 : -10, -12
9: Cc1ccc(-c2cc3c(SCC(=O)Nc4cccc(C)c4)nccn3n2)cc1
 : 4, -2
10: CN(C)CCCn1ccc2c(cnc3nc(-c4ccccc4Cl)nn32)c1=O
 : -4, 1
11: COC(=O)C(CC(C)C)N1C(=O)c2ccc3c4c(ccc(c24)C1=O)CC3 (stereo unspecified)
 : -5, -7
12: COc1cc(C=NN=CC2=C(N3CCOCC3)C(=Cc3ccccc3)CC2)cc(OC)c1
 : -2, -5
13: Cc1ccc(-n2ncc3c(=O)n(NC(=O)c4ccc([N+](=O)[O-])cc4)cnc32)cc1
 : 3, 0
14: CCOC(=O)c1sc2nc3c(c(-c4ccc(OC)cc4)c2c1N)CCC3
 : -9, -15
15: Cc1ccccc1C(C(=O)NCCc1nc2ccccc2[nH]1)N(C)C (stereo unspecified)
 : -3, -7

Entries of single compounds, quoted from the list:
Record of Cc1cccc(-n2nc(C(=O)N3CCN(C)CC3)c(=O)n(Cc3ccccc3C)c2=O)c1 = NPYLR7 ag: 14; NPYLR7 ag max-min: 12
Record of Cc1ccc(-n2ncc3c(=O)n(NC(=O)c4ccc([N+](=O)[O-])cc4)cnc32)cc1 = NPYLR7 ag: 3; NPYLR7 ag max-min: 0
Record of CN=c1scc(-c2ccc(OC(F)F)cc2)n1N=Cc1ccc2c(c1)OCCO2 = NPYLR7 ag: 8; NPYLR7 ag max-min: 6

Quoted from the listing.
#4 in NPYLR7 ag max-min = 6
#1 in NPYLR7 ag = -3
#3 in NPYLR7 ag = 6
#7 in NPYLR7 ag max-min = -18
#8 in NPYLR7 ag max-min = -12
#15 in NPYLR7 ag = -3

The list goes on.
Values run as follows: NPYLR7 ag, NPYLR7 ag max-min
16: CC(=O)N1N=C(c2c(C)nc3ccc(Cl)cc3c2-c2ccccc2)CC1c1ccccc1 (stereo unspecified)
 : -2, -7
17: CC(c1nc(-c2cccc(C(F)(F)F)c2)no1)N1CCNCC1 (stereo unspecified)
 : -2, -3
18: Cc1noc(-c2ccccc2)c1NC(=O)Nc1cccc2[nH]c([C@@H]3O[C@H](CO)[C@@H](O)[C@H](O)[C@H]3O)nc12
 : 19, 23
19: CCn1nc(C(=O)O)ccc1=O
 : 3, 1
20: Cc1ccc(CN(CC(O)COCc2ccccc2)C2CC2)o1 (stereo unspecified)
 : 21, 13
21: CC1CN(CC(=O)NCC(c2cccnc2)N2CCOCC2)Cc2cc(Cl)ccc2O1 (stereo unspecified)
 : 30, 13
22: CCc1nc2ccc(C(=O)N3CCN(C(C)=O)CC3)cn2c1N(C)Cc1cccs1
 : 6, -5
23: COc1ccc(-c2nc(CSc3nnc(C)s3)cs2)cc1OC
 : 2, 10
24: O=C(NCCN1CCCCC1)C(C1CCCC1)N1CCN(C(=O)COCc2ccccc2)CC1 (stereo unspecified)
 : -7, 1
25: Cc1onc(-c2ccccc2)c1C(=O)Nc1cccc(Cl)c1
 : 8, 5
26: CN(CCC(F)(F)F)Cc1csc(-c2ccccc2)n1
 : 37, 18
27: CCC1CCCCN1C(=O)C(C)N1CCN(S(=O)(=O)c2cccs2)CC1 (stereo unspecified)
 : 4, 2
28: Clc1ccc(C2Nc3ccccc3-c3nc(C4CC4)nn32)cc1 (stereo unspecified)
 : 5, 2
29: CCCCCOc1ccc(C(=O)N2CCc3ccccc3C2)cc1OCCCCC
 : 23, 12
30: Cc1cccc(CN2C[C@@H](C(=O)O)C[C@@H](C(=O)N3CCN(C)CC3)C2)n1
 : 8, 6
31: Cc1ccccc1C(C)NC(=O)NC(C)c1ccccn1 (stereo unspecified)
 : 2, 1
32: Nc1c(Cl)cc(Nc2ncccc2[N+](=O)[O-])cc1Cl
 : -1, 18
33: O=C(c1cccc2ncccc12)N1CC2C[C@@H]3CC1C[C@H](C2)C3
 : -4, -5
34: Cc1cn2c3c(=O)n(C)c(=O)n(C)c3nc2n1CCN1CCc2ccccc2C1
 : 9, 13
35: Cc1ccc2oc(-c3ccc(C)c(NC(=O)c4ccccc4[N+](=O)[O-])c3)nc2c1
 : -8, -7
36: O=C1O/C(=C/Oc2cc(Cl)c(Cl)cc2Cl)c2ccccc21
 : 2, 1
37: O=C(CSc1nc2[nH]ncc2c(=O)[nH]1)Nc1ccccc1
 : -2, -3
38: Nc1ccc(-c2nccc(CCC(F)(F)F)n2)cn1
 : 1, 51
39: C=C(C)Cn1c(=O)c2c(nc3n2CC(C)=NN3CCOCC)n(C)c1=O
 : 14, 6
40: Cn1c(=O)n(Cc2ccccc2F)c(=O)c2c1nc1n2CCN1c1ccc(F)cc1
 : 9, 8
41: CC(C)N(Cc1cnn(C)c1)C(=O)c1ccc(-n2cccc2)cc1
 : -1, -1
42: O=C(Nc1cnc2n1CCCC2)c1ccc(CSc2ncccn2)o1
 : 23, 15
43: FC(F)(F)c1cccc(-c2cnn3c(NCc4cccc(Cl)c4)ccnc23)c1
 : 0, -6
44: CC(C)Cc1noc(CN(C)CC(O)COCc2ccccc2)n1 (stereo unspecified)
 : 3, 3
45: O=C(Cc1cccnc1)N1CCOc2ccc(C(O)C(c3ccccc3)c3ccccc3)cc2C1 (stereo unspecified)
 : 12, 9

Exported with one line to a screen: 4 of the compounds above
(5) COc1ccc(NC(=O)CSc2nnc(CNC(=O)c3ccco3)n2-c2cccc(C(F)(F)F)c2)cc1
(37) O=C(CSc1nc2[nH]ncc2c(=O)[nH]1)Nc1ccccc1
(39) C=C(C)Cn1c(=O)c2c(nc3n2CC(C)=NN3CCOCC)n(C)c1=O
(13) Cc1ccc(-n2ncc3c(=O)n(NC(=O)c4ccc([N+](=O)[O-])cc4)cnc32)cc1

assay / compound | 5 | 37 | 39 | 13
NPYLR7 ag | 9 | -2 | 14 | 3
NPYLR7 ag max-min | 6 | -3 | 6 | 0

Going on with the list:
Values run as follows: NPYLR7 ag, NPYLR7 ag max-min
46: COc1ccc(CN(Cc2ccc(C(C)(C)O)o2)C2CC2)cc1
 : -2, 4
47: COC(=O)c1ccc(-c2ccc(CNCC(O)c3ccccc3)o2)cc1 (stereo unspecified)
 : 2, 7
48: O=C(O)Cc1sc(-c2cccs2)nc1-c1ccc(Cl)cc1
 : 8, 3
49: COc1ccc(Cl)cc1-c1nc(C=Nc2ccccn2)c(O)o1
 : 8, 0
50: CNC(=S)N1C(=Nc2ccc(C)cc2C)SCC1C (stereo unspecified)
 : 13, 3
51: C/C(=C/C(=O)OC(C)C(=O)N1CCNC1=O)C12CC3CC(CC(C3)C1)C2 (stereo unspecified)
 : 1, 3
52: Cc1ccccc1Oc1ncccc1CNC(=O)Cc1ccsc1
 : 1, -2
53: COCn1c2ccc(Cl)cc2c2cc(Cl)ccc21
 : 2, -2
54: CCS(=O)(=O)Nc1ccc(C(=O)N2CCC(COC)C2)cc1 (stereo unspecified)
 : -4, -4
55: CCc1cccc(C)c1NC(=O)NCCS(=O)(=O)Nc1ccccn1
 : 8, 8
56: COCCCN(Cc1csc(COc2c(OC)cccc2OC)n1)C(=O)C1CCCC1
 : -2, 5
57: CCCCCCCC(=O)Nc1c(-c2ccccc2)nc2cc(C)ccn12
 : -7, 2
58: CCS(=O)(=O)NC1CCN(c2ccccc2C(=O)N(C)C2CCCCC2)CC1
 : -1, 15
59: CCCN(C(=O)c1ccc(C)[nH]c1=O)C1C2CCOC2C1(C)C (stereo unspecified)
 : -3, -4
60: O=C(Cc1noc2ccccc12)NCCNc1cc(-n2cccn2)ncn1
 : -10, -16
61: CCCCOc1c(C(=O)c2c(F)cc(C)cc2F)cnc2n[nH]cc12
 : -6, -6
62: C=C(C)COc1ccccc1C(=O)NCC(O)c1nccn1C (stereo unspecified)
 : 0, -6
63: COCC(=O)N(C)CCCCCc1cc(-c2ccccc2)n[nH]1
 : 3, 2
64: COCCCN(Cc1c(-c2cccc(C)c2)noc1N1CCOCC1)C(=O)C1CCCC1
 : 5, 7
65: Cc1cc(=O)[nH]c(-n2nc(C)c(CCC(=O)N3CCCC3)c2C)n1
 : 2, 0
66: CCCCc1ccc(C(=O)N2CCN(C(C(=O)Nc3ccc(C(C)C)cc3)C3CCCC3)CC2)cc1 (stereo unspecified)
 : 2, 12
67: NC(=O)COC(=O)Cc1ccc(Cl)cc1Cl
 : 5, 3
68: CCCCn1c(SC2CCN(C3CC3)C2=O)nc(C)c1C (stereo unspecified)
 : 4, 4
69: CCCOC(=NCc1ccccn1)NC(=O)c1cccc(OC)c1
 : -3, 0
70: O=C(O)c1ccc(CSc2nnc(Cc3ccccc3)n2-c2ccc(F)cc2)cc1
 : 1, -2
71: O=C(COc1ccccc1)NC1CCN(c2ccccc2C(=O)N2CCN(C3CCCCCC3)CC2)CC1
 : 25, 29
72: Cc1ccccc1-n1c(SCC(=O)c2ccc(Cl)cc2)nnc1-c1ccccc1Cl
 : 15, 13
73: O=C(NC1(C(F)(F)F)NC(=O)N(c2ccccc2F)C1=O)C1CCCCC1 (stereo unspecified)
 : 9, 1
74: COc1ccccc1CNC(=O)CN(C)C(C)c1nccs1 (stereo unspecified)
 : 7, 5
75: CC1CCCCN1CCCNC(=O)CSc1nc(Cl)cc(N2CCN(C(=O)c3ccccc3Cl)C(C)C2)n1 (stereo unspecified)
 : -7, 1

Part of the list above in another layout.
[71] O=C(COc1ccccc1)NC1CCN(c2ccccc2C(=O)N2CCN(C3CCCCCC3)CC2)CC1
[72] Cc1ccccc1-n1c(SCC(=O)c2ccc(Cl)cc2)nnc1-c1ccccc1Cl
Assay by compound | 71 | 72
NPYLR7 ag | 25 | 15
NPYLR7 ag max-min | 29 | 13

The list continues.
Values run as follows: NPYLR7 ag, NPYLR7 ag max-min
76: Cc1ccccc1-c1onc(C)c1C(=O)N(C)CCc1ccccn1
 : -1, 9
77: CC(C)(C)CC(=O)Nc1cc(Cl)ccc1Oc1ccccc1
 : 9, 11
78: Cc1ccc(-c2noc(Cn3ccn4nc(-c5ccccc5)cc4c3=O)n2)cc1
 : -2, -2
79: O=c1sc2ccccc2n1Cc1nnc(SCc2cccnc2)n1CCc1ccccc1
 : 5, 4
80: Cn1c(=O)oc2ccc(C(=O)N3CCC4(CCCNC4)C3)cc21 (stereo unspecified)
 : -3, 16
81: Cc1cc(O)c(C(c2ccccc2)N2CCN(C)CC2)c(=O)n1Cc1cccnc1 (stereo unspecified)
 : 7, 2
82: CC(C)c1cc(N2CCN(C)CC2)nc(SCc2ccc(C(=O)NCC3CCCO3)o2)n1 (stereo unspecified)
 : 11, 10
83: C(=C\C1CCCCCN1)/c1ccccc1 (stereo unspecified)
 : 20, 10
84: CCCCCCCN1C(=O)C(=Cc2c(NCCO)nc3ccccn3c2=O)SC1=S
 : 18, 9
85: CCOC(=O)c1c(NC(=O)CCl)sc(C(=O)OC)c1CC(=O)OC
 : -5, -9
86: CN1Cc2ccccc2CC1CN (stereo unspecified)
 : -9, -16
87: COc1ccc(NC(=O)C2(C)CCc3ccccc3C2)cc1 (stereo unspecified)
 : 5&3, 3&-1
88: CC(C)(C)CN1CCNC(=O)C1CC(=O)NC(C)(C)CN1CCCC1 (stereo unspecified)
 : 10, 6
89: CS(=O)(=O)c1ccc(S(=O)(=O)Nc2ccc(Cl)c([N+](=O)[O-])c2)cc1
 : 1, 6
90: Cn1ccnc1C1CCCCN1Cc1nc(COc2ccccc2)no1 (stereo unspecified)
 : 17, 9
91: Cc1cnc2c(C(=O)NC(C)c3nncn3C(C)C)cnn2c1 (stereo unspecified)
 : -1, -5
92: Cc1cc2ncc(SC(=O)N(C)C)cn2n1
 : 17, 15
93: CC(C)Cn1c(CN(Cc2ccccc2)Cc2ccccc2)nc2c1c(=O)n(C)c(=O)n2C
 : 11, 7
94: CCc1nc2ccc(C(=O)N3CCCC(C(N)=O)C3)cn2c1N(CC)C(=O)NCCc1ccccc1 (stereo unspecified)
 : 0, -12
95: CCNC(=O)N1CCN(C(=O)c2cc(-c3ccccc3)n(-c3cccc(OC)c3)c2C)CC1
 : -6, 2
96: CCCOc1ccc(C(=O)N2CCC(n3cnc4ccc(C)cc43)CC2)cc1
 : -6, -10
97: CC(C)N(Cc1nc(-c2ccc3c(c2)OCO3)no1)CC1CCC(=O)N1 (stereo unspecified)
 : 3, 1
98: CC(c1ccc(S(N)(=O)=O)cc1)N(C)C(=O)/C=C/c1cc(Cl)c2c(c1)OCO2 (stereo unspecified)
 : 0, 0
99: Oc1oc(-c2ccccc2)nc1C=Nc1cc(Cl)ccc1Cl
 : -2, -9
100: CC(C)(C)c1ccc(CC(=O)N2CCC2(C)C(=O)NS(=O)(=O)c2cccc(F)c2)cc1 (stereo unspecified)
 : -6, -11
101: CCOc1ccc(-c2ccnc(N3CCN(C(=O)c4ccccc4OC(F)(F)F)CC3)n2)cc1
 : 2, 0
102: CCCCN(Cc1cccn1Cc1cccc(C)c1)C(=O)CN(CCOC)C(=O)c1ccccc1F
 : 0, 10
103: O=C(Nc1ccc(-c2ccc(N3CCCC3)nn2)cc1)c1ccc2nsnc2c1
 : -1, -4
104: CC1N=C2c3ccccc3N=C(SCc3cc(=O)n4ccccc4n3)N2C1=O (stereo unspecified)
 : 9, 5
105: Cc1ccc(-n2nnc3c(=O)n(CC(=O)c4ccc(Cl)cc4)cnc32)cc1
 : 7, 11
106: CC(C)C(NC(=O)C1CCN(S(=O)(=O)c2cccs2)CC1)c1cccs1 (stereo unspecified)
 : 26, 18
107: Cc1c2c(nc3sc4c(O)cc(=O)[nH]c4c13)CCC2
 : 10, 0
